Source: PubChem
Integrin act MD: qHTS for Activators of Integrin-Mediated Alleviation for Muscular Dystrophy; alpha7betagal myoblasts, beta-gal FDG fluorescence, 48 h; Potency, µM (top dose mostly 38.3 µM), for inactives: top-dose activation, hits mostly activators; 350,000 compounds, 0.064% hits; AID 624291, 2012;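 also: potency is read from the fitted curve at half-maximal effect; 100% = response of the positive control SU9516; nearly all actives have a fitted effect of over 60% in size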
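alpha7betagal+/- myoblasts (passage 13, 250/well) treated 48 h at 37C with compounds at 1:260 dilution of DMSO stock. Lysed, then beta-galactosidase activity read as FDG fluorescence (ex 480/em 540) after 30 min, with pre-read for autofluorescence.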
Mito fusion yeast: qHTS Assay for Small Molecule Inhibitors of Mitochondrial Division or Activators of Mitochondrial Fusion | 320,000 compounds, 0.23% hits | Potency, µM (doses to about 46.1 µM), for the others: at the highest dose growth rescue (activation), actives largely listed as activators | S. cerevisiae fusion-defective mutant growth rescue, CellTiterGlo 48 h;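 also: potency is read from the fitted curve at half-maximal effect; % of control where 0% means no effect; nearly all actives have a fitted effect of over 45% in size; temperature-sensitive fusion mutants such as fzo1-1 at 37 °C on non-fermentable ethanol glycerol medium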
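Temperature-sensitive fusion-defective S. cerevisiae (e.g. fzo1-1, mgm1-5) were grown with compound in YPEG medium (3% ethanol, 3% glycerol) for 48 hours at 37C. Growth rescue was measured as viability by CellTiterGlo luminescence after 10 minutes at ambient.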
Tb PFK inh: qHTS Assay to Find Inhibitors of T. brucei phosphofructokinase | ATP-dependent 6-phosphofructokinase (Trypanosoma brucei brucei), O15648 | T. brucei PFK, ADP-Glo luminescence | Potency, µM (top dose mostly 57.5 µM), without a hit: at the top dose activity, negative = inhibition, actives largely listed as inhibitors | 330,000 compounds, 0.17% hits | AID 485367, 2010;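 also: potency is read from the fitted curve at half-maximal effect; 0% = uninhibited 1x PFK enzyme wells and -100% = no-enzyme wells; nearly all actives have a fitted effect of over 60% in size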
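1.25 nM PFK with 0.5 mM F6P and 0.1 mM ATP in 0.1 M TEA pH 8.0, 5 mM MgCl2, incubated 45 min at room temperature; ADP measured by ADP-Glo luminescence; compounds titrated up to 57 uM.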
TSHR antag: Antagonists of the Thyroid Stimulating Hormone Receptor: HTS campaign; TSHR-expressing cells, TSH-stimulated cAMP HTRF, 2 h; stronger effect = lower value; activity change, negative = inhibition, % at 11.5 µM; AID 504810, 2011; 330,000 compounds, 0.2% hits; Thyrotropin receptor (Homo sapiens), P16473;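 active = activity change below a set negative limit, meaning inhibition stronger than a set level, cut at about -70% in these data; inconclusive = activity change between two set negative limits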; also: % is scaled to controls: 0 for no effect and ±100 for the full control effect
Target sequence (P16473 whole entry, looked up): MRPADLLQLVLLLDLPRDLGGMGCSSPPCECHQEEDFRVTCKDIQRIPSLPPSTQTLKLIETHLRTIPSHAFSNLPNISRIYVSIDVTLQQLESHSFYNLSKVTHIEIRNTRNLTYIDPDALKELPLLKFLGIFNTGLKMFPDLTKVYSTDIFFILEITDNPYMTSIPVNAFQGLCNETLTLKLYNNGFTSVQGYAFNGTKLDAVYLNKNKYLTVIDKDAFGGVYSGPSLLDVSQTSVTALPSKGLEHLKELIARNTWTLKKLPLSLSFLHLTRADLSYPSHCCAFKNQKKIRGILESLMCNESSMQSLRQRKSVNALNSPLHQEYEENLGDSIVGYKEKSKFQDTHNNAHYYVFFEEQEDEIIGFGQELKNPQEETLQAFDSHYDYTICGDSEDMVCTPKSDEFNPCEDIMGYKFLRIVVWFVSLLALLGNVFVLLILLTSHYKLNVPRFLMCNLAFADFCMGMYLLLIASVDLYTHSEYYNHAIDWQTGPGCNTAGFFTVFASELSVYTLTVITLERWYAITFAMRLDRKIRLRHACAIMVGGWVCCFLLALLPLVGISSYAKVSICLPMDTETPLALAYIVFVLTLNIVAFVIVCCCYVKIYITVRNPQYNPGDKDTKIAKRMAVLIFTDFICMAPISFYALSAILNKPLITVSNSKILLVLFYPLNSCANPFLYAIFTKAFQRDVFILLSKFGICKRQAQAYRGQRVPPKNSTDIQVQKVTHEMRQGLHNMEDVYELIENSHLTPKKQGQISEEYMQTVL
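TSHR-expressing cells, 200/well, pre-treated with compound, then stimulated with EC80 TSH (4nM final) for 2 hours at 37 deg C. cAMP measured by competitive HTRF: anti-cAMP cryptate antibody in lysis buffer plus cAMP-d2, read after 30 minutes at room temperature.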
ASM inhibitor: Inhibitors of Secretory Acid Sphingomyelinase (S-ASM): qHTS; Sphingomyelin phosphodiesterase (Homo sapiens), P17405; placental ASM, HMU-PC fluorogenic substrate, 60 min; Potency, µM (top dose mostly 57.5 µM), for inactives: at the top dose activity change, negative = inhibition, hits mostly inhibitors; 340,000 compounds, 0.006% hits; AID 504937, 2011; also: potency is read from the fitted curve at half-maximal effect
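qHTS format. ASM enzyme prepared from human placenta hydrolyses the fluorogenic substrate HMU-PC0 (9 uM final) over 60 min at 37 °C after a 10 min compound preincubation.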
Chronic BCR inh: qHTS Assay to Find Inhibitors of Chronic Active B-Cell Receptor Signaling | ABC-DLBCL IkBa-CBG/CBR reporter, luminescence ratio, 4 h | Potency, µM (top dose mostly 46.1 µM), inactives show at the highest dose ratio change, negative = lower green/red ratio, hits mostly inhibitors | 340,000 compounds, 0.05% hits; active = well fitted inhibition curve with a large enough effect in the signal ratio, with a control signal flat, not every such curve was filed as active; inconclusive = small, poorly fitted or top-dose-only effect, or effect the other way, or a change in a side signal; the % refers to the signal ratio;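 also: potency is read from the fitted curve at half-maximal effect; plate controls were basal doxycycline-induced cells for no effect and cells given 10 µM MG132 for full effect; MG132 reads +100%, hits lower the ratio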
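TMD8 ABC-DLBCL cells carrying doxycycline-inducible green luciferase fused to IkappaBalpha plus unfused red luciferase were exposed to compounds (up to 46 uM) for 4 hrs at 37C. Activity came from the overlap-corrected green/red luminescence ratio.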
TSG101-PTAP inh: qHTS Assay for Iinhibitors of HIV-1 Budding by Blocking the Interaction of PTAP/TSG101; Tumor susceptibility gene 101 protein (Homo sapiens), Q99816; Fluorescence polarization, FITC-PTAP peptide / Tsg101 binding; Potency, µM (doses to about 115 µM), for the others: top-dose activity change, negative = inhibition, most hits filed as inhibitors; 340,000 tested, under 10 active; active = well fitted inhibition curve with a large enough effect in the main read-out, with a control signal flat, not every such curve was filed as active; inconclusive = small, poorly fitted or top-dose-only effect, or effect the other way, or a change in a side signal; inactive = no such curve, though single readings can be large or run the other way; also: potency is read from the fitted curve at half-maximal effect; % of control where 0% means no effect
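Fluorescence polarization binding of Tsg101 binding domain (10 uM final) to FITC-labeled PTAP peptide (50 nM final) in HEPES pH 7.5 buffer with NaCl, Tween 20, EDTA, TCEP. Compounds added before peptide; binding 20 min at RT.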
TCR act: Activators of T cell receptors: qHTS campaign. primary human leukocytes, anti-CD3, IL-2 HTRF, 48 h. Potency, µM (highest dose often 9.22 µM), for inactives: at the highest dose activation of IL-2 secretion, usual class: activators. 330,000 tested, under 10 active. AID 504894, 2011; also: % of control where 0% means no effect
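48 hr co-incubation of compounds, a-CD3 beads and primary human leukocytes; IL-2 quantified homogeneously by HTRF with anti-IL-2 K and d2 conjugates.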
AT treatment: qHTS Assay for Identifying a Potential Treatment of Ataxia-Telangiectasia. […] A-T fibroblasts, KAP-1 phosphorylation AlphaLISA; neocarzinostatin DNA damage 30 min before lysis. Potency, µM (top dose mostly 57.5 µM), for inactives: at the top dose activation, most hits filed as activators. 320,000 compounds, 0.19% hits. AID 485349, 2010; also: potency is read from the fitted curve at half-maximal effect; % of control where 0% means no effect; nearly all actives have a fitted effect of over 45% in size
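ATM-like activity read as KAP-1 phosphorylation via AlphaLISA donor/acceptor antibody pairs after lysis and 6 hr at 25C. Cells were ATM-null patient fibroblasts ([…], hTERT), dosed 60 min, then exposed to the DSB inducer NCS for 30 min.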
* hit, by the source's call; ? = inconclusive; . = not tested or not shown; & = joins results of further samples; [ ] = another dose, or the depositor's remark. Unless noted, calls follow the shape of the dose curve; as a rule, active = well fitted curve in the direction sought with a large enough effect; inconclusive = small, poorly fitted or top-dose-only effect, or another doubt; inactive = no such curve, though single readings can be large; an effect the other way counts as inactive or inconclusive. This is a subset. The share of hits here may be higher or lower than overall.

SMILES	Integrin act MD	Mito fusion yeast	Tb PFK inh	TSHR antag	ASM inhibitor	Chronic BCR inh	TSG101-PTAP inh	TCR act	AT treatment
O=C(OCC(=O)c1ccc(Cl)cc1Cl)c1ccccn1	-45.2%[inhibitor]	.	14.1%	.	-0.1%	-0.6%	-3.7%	.	-9.3%
N/C(=N\NC(=O)Nc1ccccc1)c1ccccn1	-4.7%	-2.4%	-2.9%	-3.6	3.2%	?	-1.9%	-6.9%	-4.6%
COc1ccc(OCC(=O)NNC(=O)c2ccccn2)cc1	-16.9%	0.2%	-0.5%	-1.9	2.9%	-6.2%	-4.9%	.	13.4%
Cc1cc(C)c2[nH]c(=O)c(CN(Cc3ccco3)C(=S)NCC3CCCO3)cc2c1 (stereo not drawn)	-1.0%	-19.6%	-3.9%	-6.6	-0.4%	4.2%	-2.6%	-0.1%[46.1 µM]	.
CC(CN1CCOCC1)OC(=O)c1ccc(Br)cc1 (stereo not drawn)	-45.3%[inhibitor]	-1.8%	0.1%	18.4	-1.8%	?	-1.4%	-5.0%	-2.2%
COc1cc(Cc2cnc(N)nc2N)cc(OC)c1OC	.	?	0.0%&4.9%	-11.2&2.6&29.0	5.8%&-1.9%	-1.9%&-1.5%	-3.2%&-2.7%	-14.8%&-11.8%	-8.3%&5.1%
COc1ccc(Nc2nc(Nc3ccc(OC)cc3)nc(SC3=NCCS3)n2)cc1	-42.6%	12.4%	0.3%	-5.7	-15.9%	-12.4%	1.8%	11.4%	.
O=C(CSc1nnc(COc2ccccc2)o1)Nc1nccs1	-4.2%	1.6%	-5.7%	-7.1	-1.8%	4.0%	0.3%	-5.0%	0.5%
O=C(N/N=C/c1ccccn1)c1cccs1	10.0%	-1.3%	-2.4%	9.6	-2.3%	?	1.4%	3.9%	5.9%
COc1ccc(C(=O)Nc2ccc(/C(C)=N/NC(=O)c3ccccc3O)cc2)cc1OC	19.8%	-0.8%	15.4%	6.2	2.4%	?	-0.6%	-0.4%[46.1 µM]	1.2%
O=C(O)CN(Cc1ccccc1)S(=O)(=O)c1ccc(F)cc1	16.5%	-2.7%	6.6%	1.7	-0.7%	-2.9%	-3.1%	2.1%	2.4%
COc1cccc(-c2nnc(SCC(=O)Nc3cc(C)on3)o2)c1	-26.0%	-5.2%	-4.3%	-1.2	-1.2%	?	-3.8%	2.7%	-4.6%
Cc1cc(-c2nnc(SCC(=O)Nc3nccs3)o2)no1	0.0%	-9.7%	0.7%	-9.5	-2.8%	?	-4.1%	-30.2%	-2.8%
Cc1cc(NC(=O)CSc2nnc(CNC(=O)c3ccc(F)cc3)o2)no1	-1.4%	1.5%	-2.0%	-6.5	-0.5%	2.0%	-0.5%	-0.5%	7.8%
CCCC1CC(C(=O)NC(C(C)Cl)C2OC(SC)C(O)C(O)C2O)N(C)C1 (stereo not drawn)	.	0.3%	1.4%	-0.7	-0.2%	-1.1%	1.2%	2.8%	13.7%
CC(C)NCC(O)COc1cccc2[nH]ccc12 (stereo not drawn)	.	?	-1.7%	-19.2&7.6	.	-9.5%	.	.	.
Cc1cc(NC(=O)CSc2nnc(-c3cccc(Cl)c3)o2)no1	-43.6%	-1.9%	-3.7%	3.0	4.0%	?	.	-2.4%	1.0%
COc1cc(C(=O)OCC(=O)Nc2nnc(-c3ccccc3)o2)cc(OC)c1OC	12.7%	0.3%	-13.1%	.	-2.6%	3.5%	-0.3%	7.1%	-4.0%
O=C(N/N=C/c1ccccn1)c1c[nH]c2ccccc12	14.1%	-1.0%	-11.8%	1.8	4.2%	?	0.3%	-1.2%	2.7%
CC(C)NC[C@@H](O)COc1ccc(CC(N)=O)cc1	.	2.1%	-11.5%	0.2	-5.1%	6.9%	-3.0%	-15.1%	1.9%
O=C(O)COCCN1CCN(C(c2ccccc2)c2ccc(Cl)cc2)CC1 (stereo not drawn)	-9.4%	0.2%&-1.5%	2.3%	-13.4&-2.2	2.9%	-23.8%	-1.6%	4.1%	2.1%
Oc1cccc(/C=N/Nc2nn3cnnc3c3ccccc23)c1	18.0%	-3.5%	0.7%	-11.3	-1.6%	?	-5.9%	4.9%	-2.1%
COc1ccc(NC(=O)CSc2ccc(-c3ccccn3)nn2)cc1OC	0.0%	-5.4%	1.1%	-4.3	3.2%	?	0.3%	-5.1%[46.1 µM]	-0.6%
CCOc1ccc(-c2nnc(SCC(=O)Nc3cc(C)on3)o2)cc1	-25.6%	-5.3%	-0.3%	-7.0	0.2%	-3.4%	-1.1%	4.8%	-0.1%
CN1CCN(Cc2cc(Cl)c3cccnc3c2OC(=O)c2cccs2)CC1	0.0%	-4.0%	5.3%	6.9	0.6%	?	-0.4%	1.6%[46.1 µM]	-2.0%
COc1ccc(NC(=O)CC(NCc2ccccn2)C(=O)O)cc1 (stereo not drawn)	-1.1%	-3.2%	0.3%	4.6	7.0%	2.3%	-0.2%	1.7%	0.3%

Gathered by group: those above containing a halogen (eight)
SMILES	Integrin act MD	Mito fusion yeast	Tb PFK inh	TSHR antag	ASM inhibitor	Chronic BCR inh	TSG101-PTAP inh	TCR act	AT treatment
O=C(OCC(=O)c1ccc(Cl)cc1Cl)c1ccccn1	-45.2%[inhibitor]	.	14.1%	.	-0.1%	-0.6%	-3.7%	.	-9.3%
CC(CN1CCOCC1)OC(=O)c1ccc(Br)cc1 (stereo not drawn)	-45.3%[inhibitor]	-1.8%	0.1%	18.4	-1.8%	?	-1.4%	-5.0%	-2.2%
O=C(O)CN(Cc1ccccc1)S(=O)(=O)c1ccc(F)cc1	16.5%	-2.7%	6.6%	1.7	-0.7%	-2.9%	-3.1%	2.1%	2.4%
Cc1cc(NC(=O)CSc2nnc(CNC(=O)c3ccc(F)cc3)o2)no1	-1.4%	1.5%	-2.0%	-6.5	-0.5%	2.0%	-0.5%	-0.5%	7.8%
CCCC1CC(C(=O)NC(C(C)Cl)C2OC(SC)C(O)C(O)C2O)N(C)C1 (stereo not drawn)	.	0.3%	1.4%	-0.7	-0.2%	-1.1%	1.2%	2.8%	13.7%
Cc1cc(NC(=O)CSc2nnc(-c3cccc(Cl)c3)o2)no1	-43.6%	-1.9%	-3.7%	3.0	4.0%	?	.	-2.4%	1.0%
O=C(O)COCCN1CCN(C(c2ccccc2)c2ccc(Cl)cc2)CC1 (stereo not drawn)	-9.4%	0.2%&-1.5%	2.3%	-13.4&-2.2	2.9%	-23.8%	-1.6%	4.1%	2.1%
CN1CCN(Cc2cc(Cl)c3cccnc3c2OC(=O)c2cccs2)CC1	0.0%	-4.0%	5.3%	6.9	0.6%	?	-0.4%	1.6%[46.1 µM]	-2.0%
